KCNQ2 inh: KCNQ2 channel blockers in CHO-K1 cells – cell-based, FluxOR thallium flux, B-score, primary screen (AID 2156); O88943; 20 min; active compounds read low; only compounds with negative scores are shown here; some inactives read as strong as hits; B-score at 10 µM; 310,000 tested, 1.1% active;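 active = fluorescence ratio B-score at most minus 3 library SDs, with starting brightness B-score within 2 library SDs, cut at about -5.5 in these data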
Target sequence (O88943 whole entry, looked up): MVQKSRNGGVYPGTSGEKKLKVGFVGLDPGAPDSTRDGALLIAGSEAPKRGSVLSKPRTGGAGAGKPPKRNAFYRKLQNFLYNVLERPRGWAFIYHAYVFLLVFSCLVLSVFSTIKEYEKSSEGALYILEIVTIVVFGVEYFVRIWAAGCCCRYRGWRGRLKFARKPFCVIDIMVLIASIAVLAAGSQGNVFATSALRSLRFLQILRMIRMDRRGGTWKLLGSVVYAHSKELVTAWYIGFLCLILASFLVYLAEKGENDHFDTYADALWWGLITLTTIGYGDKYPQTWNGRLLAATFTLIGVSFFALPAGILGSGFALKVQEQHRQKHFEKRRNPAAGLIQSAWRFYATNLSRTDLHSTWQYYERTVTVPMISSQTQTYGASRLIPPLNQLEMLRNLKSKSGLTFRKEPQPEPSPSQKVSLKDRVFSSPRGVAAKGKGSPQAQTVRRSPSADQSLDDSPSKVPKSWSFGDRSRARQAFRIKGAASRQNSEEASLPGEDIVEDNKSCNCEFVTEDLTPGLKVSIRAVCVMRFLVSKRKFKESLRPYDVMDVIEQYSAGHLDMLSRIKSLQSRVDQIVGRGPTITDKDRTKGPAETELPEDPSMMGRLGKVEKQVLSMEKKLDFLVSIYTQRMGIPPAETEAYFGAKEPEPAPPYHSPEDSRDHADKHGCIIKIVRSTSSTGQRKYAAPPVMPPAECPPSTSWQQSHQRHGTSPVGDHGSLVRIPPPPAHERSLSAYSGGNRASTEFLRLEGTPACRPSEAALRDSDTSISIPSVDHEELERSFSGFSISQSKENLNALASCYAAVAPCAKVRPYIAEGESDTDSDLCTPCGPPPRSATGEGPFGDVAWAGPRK
KCNQ2 inh baseline: further read-out of KCNQ2 inh, marked with its call; B-score; measured here: initial fluorescence intensity artifact check;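 brightness before thallium and not channel activity; 0 = typical well and far values either way flag optical interference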
* marks the source's active call; other numbers are inactive results.

CC(C)CC(NS(=O)(=O)c1ccccc1S(=O)(=O)NC(CC(C)C)C(=O)O)C(=O)O (configuration not stated) was read as KCNQ2 inh inactive and KCNQ2 inh baseline -1.1.
`O=C1CCc2cc(NS(=O)(=O)c3ccc([N+](=O)[O-])cc3)cc3c2N1CC3` gave KCNQ2 inh inactive and KCNQ2 inh baseline -0.76.
For COc1ccc(C2C(C(=O)N3CCCC3)c3cc(OC)c(OC)cc3C(=O)N2C)cc1OC (configuration not stated) the results were KCNQ2 inh inactive and KCNQ2 inh baseline 2.
CC(O)CN(Cc1cccc(Cl)c1)CC(C)O (configuration not stated) was read as KCNQ2 inh inactive and KCNQ2 inh baseline -1.3.
`COc1cc(SSc2cc(OC)cc([N+](=O)[O-])c2N)c(N)c([N+](=O)[O-])c1` gave KCNQ2 inh inactive and KCNQ2 inh baseline 0.35.
Screening O=C(NC1CCCCC1)c1c2c(nc3ccccc13)CCC2 returned KCNQ2 inh inactive and KCNQ2 inh baseline 0.44.
`Cc1ccc(C2(O)CN(c3ccccc3)C3=[N+]2CCS3)cc1` (configuration not stated) gave KCNQ2 inh inactive and KCNQ2 inh baseline -1.8.
COc1ccc(OC)c(S(=O)(=O)N2CCN3CCCC3C2)c1 (configuration not stated) was read as KCNQ2 inh inactive and KCNQ2 inh baseline 1.4.
CCCCCn1cnc2sc(CC)cc2c1=O was read as KCNQ2 inh inactive and KCNQ2 inh baseline 0.88.
Screening CCOC(=O)C1(CCCc2ccccc2)CCN(C(=O)c2cc(C)nc(C)n2)CC1 returned KCNQ2 inh inactive and KCNQ2 inh baseline -0.7.
For Cc1cc2c(NC(=O)Nc3ccc(C(C)(C)C)cc3)cccc2nn1 the results were KCNQ2 inh inactive and KCNQ2 inh baseline 2.
`Cc1ccc(C(=O)Cc2nc3ccccc3[nH]2)cc1` gave KCNQ2 inh inactive and KCNQ2 inh baseline -1.1.
For COc1ccc(C(=O)Nc2oc(-c3ccccc3)c(-c3ccccc3)c2C#N)cc1OC the results were KCNQ2 inh inactive and KCNQ2 inh baseline -0.04.
For COc1ccc(-c2nnc(NC(=O)c3ccc(F)cc3)o2)cc1 the results were KCNQ2 inh inactive and KCNQ2 inh baseline 0.07.
For CCOc1ccc(N2C(=O)CC(NC3CCN(C(=O)c4ccc(F)cc4)CC3)C2=O)cc1 (configuration not stated) the results were KCNQ2 inh inactive and KCNQ2 inh baseline 0.57.
CCCOc1ccc(-c2nc(C#N)c(N3CCN(CC)CC3)o2)cc1 was read as KCNQ2 inh inactive and KCNQ2 inh baseline 0.99.
For Cc1ccc(S(=O)(=O)N2CCOCC2)cc1C(=O)OCC(=O)N1CCc2ccccc2C1 the results were KCNQ2 inh inactive and KCNQ2 inh baseline 0.58.
For O=[N+]([O-])c1cc(CN2CCC(O)CC2)ccc1Cl the results were KCNQ2 inh inactive and KCNQ2 inh baseline 1.9.
`O=C(O)C1C2CCC(CC2)C1C(=O)N1CCN(Cc2ccc(F)cc2)CC1` (configuration not stated) gave KCNQ2 inh inactive and KCNQ2 inh baseline 0.02.
`CC(=O)Nc1ccccc1C(=O)N1CC(C)OC(C)C1` (configuration not stated) gave KCNQ2 inh inactive and KCNQ2 inh baseline 0.03.

Arranged by molar mass (largest number first): 5 of the compounds above.
CC(C)CC(NS(=O)(=O)c1ccccc1S(=O)(=O)NC(CC(C)C)C(=O)O)C(=O)O (configuration not stated) was read as KCNQ2 inh inactive and KCNQ2 inh baseline -1.1.
`O=C1CCc2cc(NS(=O)(=O)c3ccc([N+](=O)[O-])cc3)cc3c2N1CC3` gave KCNQ2 inh inactive and KCNQ2 inh baseline -0.76.
For Cc1cc2c(NC(=O)Nc3ccc(C(C)(C)C)cc3)cccc2nn1 the results were KCNQ2 inh inactive and KCNQ2 inh baseline 2.
COc1ccc(OC)c(S(=O)(=O)N2CCN3CCCC3C2)c1 (configuration not stated) was read as KCNQ2 inh inactive and KCNQ2 inh baseline 1.4.
Screening O=C(NC1CCCCC1)c1c2c(nc3ccccc13)CCC2 returned KCNQ2 inh inactive and KCNQ2 inh baseline 0.44.

Structural class: the entries above with a carbonyl joined to an NH by a bond outside any ring (5)
Screening O=C(NC1CCCCC1)c1c2c(nc3ccccc13)CCC2 returned KCNQ2 inh inactive and KCNQ2 inh baseline 0.44.
For Cc1cc2c(NC(=O)Nc3ccc(C(C)(C)C)cc3)cccc2nn1 the results were KCNQ2 inh inactive and KCNQ2 inh baseline 2.
For COc1ccc(C(=O)Nc2oc(-c3ccccc3)c(-c3ccccc3)c2C#N)cc1OC the results were KCNQ2 inh inactive and KCNQ2 inh baseline -0.04.
For COc1ccc(-c2nnc(NC(=O)c3ccc(F)cc3)o2)cc1 the results were KCNQ2 inh inactive and KCNQ2 inh baseline 0.07.
`CC(=O)Nc1ccccc1C(=O)N1CC(C)OC(C)C1` (configuration not stated) gave KCNQ2 inh inactive and KCNQ2 inh baseline 0.03.

Next structures follow.
`Fc1ccc(OCCOCCN2CCCC2)cc1` gave KCNQ2 inh inactive and KCNQ2 inh baseline -0.07.
Screening CC(=O)N/C(=C\c1ccccc1)C(=O)OCC(=O)NC(C)C12CC3CC(CC(C3)C1)C2 (configuration not stated) returned KCNQ2 inh inactive and KCNQ2 inh baseline 0.02.
For COc1cc(S(=O)(=O)Nc2cccnc2)ccc1Cl the results were KCNQ2 inh inactive and KCNQ2 inh baseline 0.78.
`CC(=O)Nc1ccc(S(=O)(=O)NCC2CCC(C(=O)NC(C)c3ccccc3)CC2)cc1` (configuration not stated) gave KCNQ2 inh inactive and KCNQ2 inh baseline 0.05.
Cc1cccc(COCC(Cc2ccccc2)N2CCN(C(=O)c3ccc(Cl)c(Cl)c3)CCC2=O)c1 (configuration not stated) was read as KCNQ2 inh inactive and KCNQ2 inh baseline -0.06.
Screening C/C=C/Cn1c(N2CCCCCC2)nc2c1c(=O)[nH]c(=O)n2C returned KCNQ2 inh inactive and KCNQ2 inh baseline -2.6.
Screening COC(CSc1ncnc2c1oc1nc3c(cc12)COC(C)(C)C3)OC returned KCNQ2 inh inactive and KCNQ2 inh baseline 0.01.
`O=C1CC(N2CCN(S(=O)(=O)c3ccc(Cl)cc3)CC2)C(=O)N1CCc1ccccc1` (configuration not stated) gave KCNQ2 inh inactive and KCNQ2 inh baseline -0.07.
Screening O=C(CSc1nnc(-c2cccc(F)c2)o1)Nc1nncs1 returned KCNQ2 inh inactive and KCNQ2 inh baseline 0.37.
CC(C)Oc1ccc(/C(O)=C2/C(=O)C(=O)N(Cc3cccnc3)C2c2ccco2)cc1 (configuration not stated) was read as KCNQ2 inh inactive and KCNQ2 inh baseline 2.1.
For Cc1cc(C)c2cc(C(=O)N3CCC(C(=O)c4ccc(F)cc4)CC3)[nH]c2c1 the results were KCNQ2 inh inactive and KCNQ2 inh baseline -0.64.
O=S(=O)(c1cc(F)ccc1F)N1CCC2(CC1)OCCO2 was read as KCNQ2 inh inactive and KCNQ2 inh baseline -1.4.
`CCOC(=O)N1CCC(N(CCN(C)C)C(=S)Nc2ccccc2OCC)CC1` gave KCNQ2 inh inactive and KCNQ2 inh baseline -0.21.
Screening COc1ccc2c(c1)c(N=NC(N)=S)c(O)n2CC(=O)c1ccccc1 returned KCNQ2 inh inactive and KCNQ2 inh baseline -1.9.
`Cc1onc(-c2ccccc2)c1C(=O)N1CCCC1` gave KCNQ2 inh inactive and KCNQ2 inh baseline 2.2.
CC(=O)NC1(C2CCCCC2=O)CCCCC1 (configuration not stated) was read as KCNQ2 inh inactive and KCNQ2 inh baseline 0.1.
`O=C(CCNS(=O)(=O)c1ccccc1)OCC(=O)c1ccc(F)cc1` gave KCNQ2 inh inactive and KCNQ2 inh baseline 3.4.
For CC(=O)NC(Cc1c[nH]c2ccccc12)C(=O)Nc1ccc2c(c1)OCO2 (configuration not stated) the results were KCNQ2 inh inactive and KCNQ2 inh baseline -2.4.
For CC1(C)CC(=O)C(C=NCCN2CCN(CC(=O)Nc3ccc(Cl)cc3)CC2)=C(O)C1 the results were KCNQ2 inh inactive and KCNQ2 inh baseline -0.06.
N#Cc1ccc(CN2CCN(C(=O)Cn3nc(C(N)=O)c4ccccc4c3=O)CC2)cc1 was read as KCNQ2 inh inactive and KCNQ2 inh baseline -0.04.
COc1ccc(C(=O)COC(=O)Cn2cnc3ccccc3c2=O)c(OC)c1 was read as KCNQ2 inh inactive and KCNQ2 inh baseline -1.8.
`CCOc1ccc2c(c1)S/C(=C\c1cccs1)C(=O)N2` gave KCNQ2 inh inactive and KCNQ2 inh baseline -0.52.
Screening COc1cc(C2C(C(=O)c3ccco3)=C(O)C(=O)N2Cc2cccnc2)cc(OC)c1OC (configuration not stated) returned KCNQ2 inh inactive and KCNQ2 inh baseline 1.4.
`COC(=O)c1cc(S(=O)(=O)N2CCN(Cc3ccccc3)CC2)cn1C` gave KCNQ2 inh inactive and KCNQ2 inh baseline 0.04.
For COc1cc(C2/C(=C(\O)c3ccc4c(c3)OCCO4)C(=O)C(=O)N2Cc2ccco2)ccc1O (configuration not stated) the results were KCNQ2 inh inactive and KCNQ2 inh baseline -0.09.
Screening COc1cccc(/C=N/Nc2nnc(C)n2N)c1O returned KCNQ2 inh inactive and KCNQ2 inh baseline 0.91.
`C=CC[C@H]1CC(C)=C[C@H](CC=C)N1C(=O)c1cc(COc2ccccc2SC)on1` gave KCNQ2 inh -5.6* and KCNQ2 inh baseline 1.8*.
`Cc1c(NC(=O)c2ccco2)cccc1-c1nc2cccnc2s1` gave KCNQ2 inh inactive and KCNQ2 inh baseline -0.01.
C[C@@H](Oc1ccccc1)c1nnn(Cc2ccccc2)c1-c1c([C@@H](C)Oc2ccccc2)nnn1Cc1ccccc1 was read as KCNQ2 inh inactive and KCNQ2 inh baseline 0.25.
For CCN1CCN(C(=O)/C=C/c2c(F)cccc2Cl)CC1 the results were KCNQ2 inh inactive and KCNQ2 inh baseline 0.17.
`Cc1ccc(-c2c(C(=O)NNC(=S)NCC3CCCO3)csc2C)cc1` (configuration not stated) gave KCNQ2 inh inactive and KCNQ2 inh baseline -0.72.
`O=C(Nc1nccs1)NC1CCCCC1` gave KCNQ2 inh inactive and KCNQ2 inh baseline 1.2.
CCN(Cc1ccccc1)Cc1cccc([N+](=O)[O-])c1 was read as KCNQ2 inh inactive and KCNQ2 inh baseline -0.13.
For COc1ccc2c(c1)c(CC(=O)Nc1ccc(C)cc1)c(C)n2C(=O)c1ccc(Cl)cc1 the results were KCNQ2 inh inactive and KCNQ2 inh baseline 2.7.
O=C(NCc1ccc(F)cc1)C(c1ccccc1)N(CC1CCCO1)C(=O)Cn1nnc2ccccc21 (configuration not stated) was read as KCNQ2 inh inactive and KCNQ2 inh baseline -0.93.
`O=C1CCCCCN1Cc1nnc(SCc2nc3ccccc3s2)n1-c1ccccn1` gave KCNQ2 inh inactive and KCNQ2 inh baseline -1.
CCC(COC(=O)Nc1cccc(C)c1C)NC(=O)OCC(C)C (configuration not stated) was read as KCNQ2 inh inactive and KCNQ2 inh baseline -0.39.
For Cc1ccc(Cl)cc1NC(=S)NN the results were KCNQ2 inh inactive and KCNQ2 inh baseline 0.19.
`c1ccc2c(c1)cnc1ccccc12` gave KCNQ2 inh inactive and KCNQ2 inh baseline -0.98.
`Cc1ccsc1CNS(=O)(=O)c1ccc(F)cc1` gave KCNQ2 inh inactive and KCNQ2 inh baseline -0.02.
O=C(NCc1ccc(F)cc1)C(c1ccco1)N(C(=O)c1csnn1)c1ccccc1 (configuration not stated) was read as KCNQ2 inh inactive and KCNQ2 inh baseline -0.76.
Screening CCOC(=O)c1sc(NC(=O)CCN2CCCCCC2)c(C(=O)OCC)c1C returned KCNQ2 inh inactive and KCNQ2 inh baseline 1.4.
Screening O=C(c1ccc(Cn2c(=O)[nH]c3ccccc3c2=O)cc1)N1CCN(c2ccc(F)cc2)CC1 returned KCNQ2 inh inactive and KCNQ2 inh baseline -0.06.
Screening COc1cccc(NC(=O)COC(=O)c2nc(Cl)ccc2Cl)c1 returned KCNQ2 inh inactive and KCNQ2 inh baseline 0.54.
`CCO[C@@H]1OC(C(=O)N2CCN(Cc3ccccc3)CC2)=C[C@H](c2csc3ccccc23)[C@H]1CCCO` gave KCNQ2 inh inactive and KCNQ2 inh baseline -0.69.
O=S(=O)(c1cnc(Cl)c(Br)c1)N1CCN(c2ncccn2)CC1 was read as KCNQ2 inh inactive and KCNQ2 inh baseline -0.04.
O=C(NCc1ccccc1)C(c1ccco1)N(C(=O)c1ccccn1)c1ccc(F)cc1 (configuration not stated) was read as KCNQ2 inh inactive and KCNQ2 inh baseline 1.2.
For O=[N+]([O-])c1ccccc1CN1CCN(Cc2ccc3ccccc3c2)CC1 the results were KCNQ2 inh inactive and KCNQ2 inh baseline -1.
Cc1ccc(C(=O)N/C(=C\c2ccco2)C(=O)NCCCN2CCOCC2)cc1C was read as KCNQ2 inh inactive and KCNQ2 inh baseline -0.36.
For COc1ccc(C(C(=O)NC2CCCC2)N(C(=O)c2ccoc2C)c2ccc(C)c(C)c2)cc1 (configuration not stated) the results were KCNQ2 inh inactive and KCNQ2 inh baseline -0.35.
Screening CC[C@@H](C)[C@@H](C(=O)N1CCN(C(=O)OC(C)(C)C)CC1)n1cc(CCC(=O)O)nn1 returned KCNQ2 inh inactive and KCNQ2 inh baseline 0.1.
`COc1cccc(NC(=O)C2CCC(CNS(=O)(=O)c3cccc4cccnc34)CC2)c1` (configuration not stated) gave KCNQ2 inh inactive and KCNQ2 inh baseline 0.15.
Screening Cn1c(-c2ccc(F)cc2)cnc1SCC(=O)Nc1ccccc1N1CCOCC1 returned KCNQ2 inh inactive and KCNQ2 inh baseline -0.34.
Screening Cc1ccc(C)c(OCC(=O)Nc2ccc3c(c2)OCO3)c1C returned KCNQ2 inh inactive and KCNQ2 inh baseline 0.89.

An excerpt; count on the stated rates, not on these rows.
